Source: PubChem BioAssay (several laboratories)
Arbovirus anti – arbovirus infection inhibition; arbovirus infection cell-based antiviral screen; inhibition, % at 10 µM; hit rate 0.37% among 200,000;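 active means inhibition from about 30%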;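 further: bluetongue infection of BSR cells; cell survival read as ATP light after 72 h; 0% = infected wells without compound and 100% = uninfected wells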
Mtb betalactam – beta-lactam sensitization of Mtb H37Rv; M. tuberculosis H37Rv growth with meropenem, percent inhibition; hits of this screen are not shown here; inhibition, % at 25 µM; hit rate 0.27% among 330,000;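 active means about 74% or more and at least 40 points above the plate without the antibiotic, then above 30% in a dose series; inconclusive means first-round hits that could not be retested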;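 further: growth measured after seven days incubation then overnight dye step; 0% = bacteria only wells and 100% = bacteria with antibiotic; twin plates without the antibiotic show which effects depend on it; some results filed as inactive read as strong as hits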
YopH PTP inh – YopH (Yersinia) phosphatase inhibition. fluorescence Ex485/Em525. hit rate 0.16% among 140,000. inhibition, %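 (about 10 µM by stock and volumes)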;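 active means inhibition of 50% or more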;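 further: controls were vehicle for no effect and minimum signal wells for full effect; inactives centre near -20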
RecA intein inh – inhibitors of M. tuberculosis RecA intein splicing; inhibition, %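 (about 9 µM by stock and volumes)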; cell-free RecA intein splicing, fluorescence; hit rate 0.75% among 290,000; in the data active means inhibition above about 30%; inconclusive means no clear call, values can overlap the other calls;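 further: 0% = vehicle wells and 100% = reference inhibitor control wells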
Target sequence (P9WHJ3 whole entry, looked up): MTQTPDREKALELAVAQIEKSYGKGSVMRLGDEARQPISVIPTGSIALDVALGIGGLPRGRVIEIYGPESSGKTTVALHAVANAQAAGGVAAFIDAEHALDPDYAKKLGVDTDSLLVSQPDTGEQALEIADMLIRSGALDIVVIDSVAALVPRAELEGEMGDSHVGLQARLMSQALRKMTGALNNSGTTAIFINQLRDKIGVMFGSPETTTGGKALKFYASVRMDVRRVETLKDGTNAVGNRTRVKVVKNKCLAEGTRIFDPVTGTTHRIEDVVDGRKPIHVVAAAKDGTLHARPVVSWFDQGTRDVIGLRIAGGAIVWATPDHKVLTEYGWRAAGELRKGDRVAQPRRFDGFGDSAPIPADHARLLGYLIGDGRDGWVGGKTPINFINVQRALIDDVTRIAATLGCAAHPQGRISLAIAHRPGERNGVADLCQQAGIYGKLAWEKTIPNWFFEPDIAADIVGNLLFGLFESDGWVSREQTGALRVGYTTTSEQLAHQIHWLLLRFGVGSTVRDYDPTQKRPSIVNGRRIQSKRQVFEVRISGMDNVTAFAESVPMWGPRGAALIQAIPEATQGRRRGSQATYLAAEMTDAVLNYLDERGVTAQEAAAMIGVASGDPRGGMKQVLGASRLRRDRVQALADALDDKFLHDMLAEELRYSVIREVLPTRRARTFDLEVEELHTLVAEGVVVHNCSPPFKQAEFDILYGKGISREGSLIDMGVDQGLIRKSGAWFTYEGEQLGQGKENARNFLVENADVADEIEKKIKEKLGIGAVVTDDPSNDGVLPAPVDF
Mtb growth – M. tuberculosis H37Rv growth inhibitors, H37Rv strain (AID 1626); hit rate 0.95% among 220,000; M. tuberculosis H37Rv growth inhibition; higher % means a stronger effect; inhibition, % at 10 µM; hits with a dose series show IC50 in µM;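 active means confirmed in a dose series; inconclusive means inhibition above 80% but not taken into the dose series; inactive means below 80% or under 30% at every dose of the series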;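 further: bacteria incubated seven days before Alamar blue readout; 0% = bacteria only wells and 100% = bacteria with antibiotic wells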
* hit, by the source's call; u = inconclusive; x = not tested or not shown.

SMILES	Arbovirus anti	Mtb betalactam	YopH PTP inh	RecA intein inh	Mtb growth
FC(F)(F)c1nnc(-c2ccccc2)nc1N1CCOCC1	-11.3	4.2	-13.5	-0.8	5.5%
Cc1cc(CN(C)C(=O)CC2C(=O)NCCN2Cc2c(F)cccc2Cl)on1 (centres undefined)	x	-2.8	x	-0.4	-3.6%
Cc1cc(C)n(CC(=O)NC2CCCCC2)n1	4.4	0.0	3.8	-3.6	-3.6%
Cc1cc(C(=O)OCC(=O)Nc2cccc(S(=O)(=O)N(C)C)c2)c(C)o1	x	-11.5	x	-0.4	4.1%
CCC(C)[C@H](NC(=O)Nc1ccc2c(c1)OCCO2)C(=O)O (some centres undefined)	1.8	4.0	-43.8	1.5	-2.2%
COc1ccc(-n2c(CNC(=O)COc3ccccc3)n[nH]c2=S)cc1	2.5	-5.8	x	0.6	-8.0%
O=C(c1ccccc1Br)N1CCN(c2ccccn2)CC1	x	-3.7	x	-2.2	x
COc1ccc(CN(C2CCCC2)S(=O)(=O)c2ccc(-n3cnnn3)cc2)cc1OC	-7.4	-1.0	-36.1	7.3	-3.4%
COc1ccc(-c2ccc(SCC(=O)N3CCN(c4ccccc4)CC3)nn2)cc1	-8.0	-0.7	x	-0.6	-7.9%
Cc1cc(NS(=O)(=O)c2ccc(Nc3nc(-c4sc(N)nc4C)cs3)cc2)no1	9.2	70.2	0.6	-2.0	-4.7%
NC(=S)N/N=C1\CCOc2ccc(Cl)cc21	x	-7.5	x	x	-16.5%
COc1ccc(S(=O)(=O)N2CCc3ccccc32)cc1C(=O)N1CCOCC1	x	-7.8	x	1.7	x
COC(=O)c1ccccc1S(=O)(=O)Nc1ccc2cn[nH]c2c1	-3.9	2.4	-53.5	5.8	2.9%
Cc1ccccc1NC(=O)Cn1cnc2c1c(=O)n(C)c(=O)n2C	-1.1	4.9	-1.2	2.1	-6.3%
Cc1cc([N+](=O)[O-])ccc1NC(=O)Nc1ccccc1F	-6.6	-5.6	x	x	8.3%
Cc1[nH]nc(SCC(=O)Nc2cccc(O)c2)c1[N+](=O)[O-]	4.7	-2.9	x	-4.9	0.1%
COc1cc(C(=O)Nc2nc(-c3ccc(Cl)cc3)c(C)s2)ccc1OCC(=O)Nc1ccc(F)cc1	-34.8	4.1	-14.6	-1.9	5.3%
O=C(Oc1cccc(/C=N/Nc2nc(N3CCOCC3)nc(N3CCOCC3)n2)c1)c1ccco1	16.9	66.1	-2.3	4.0	0.3%
O=C(O)CC1=C(O)C(=O)N(c2ccccc2)C1c1ccc(Cl)cc1 (centres undefined)	1.9	0.5	-27.9	-1.9	-5.6%
CCOC(=O)Cc1csc(NC(=O)/C=C/c2ccccc2Cl)n1	x	-5.4	x	0.1	6.3%
O=C(NCCC1=CCCCC1)c1cnc2n(c1=O)CCS2	-7.8	-4.0	-24.3	0.7	-3.5%
O=C(O)c1ccc(CNCc2cccc(Cl)c2)cc1	5.5	-5.3	x	-3.3	0.7%
CCN(CC)S(=O)(=O)c1cccc(NC(=O)COc2ccc(F)cc2Br)c1	3.2	-7.4	x	2.3	3.0%
O=C(Cn1c(C2CC2)nc2ccccc2c1=O)Nc1ccc(Br)cc1	-5.8	-14.3	-16.8	-0.1	-9.9%
O=C(Nc1ccc2oc(-c3ccccc3F)nc2c1)c1ccc2c(c1)OCCO2	-24.4	91.9	-33.5	15.1	15.3%

Sorted by molar mass (highest first): 16 of the compounds above
SMILES	Arbovirus anti	Mtb betalactam	YopH PTP inh	RecA intein inh	Mtb growth
O=C(Oc1cccc(/C=N/Nc2nc(N3CCOCC3)nc(N3CCOCC3)n2)c1)c1ccco1	16.9	66.1	-2.3	4.0	0.3%
CCN(CC)S(=O)(=O)c1cccc(NC(=O)COc2ccc(F)cc2Br)c1	3.2	-7.4	x	2.3	3.0%
Cc1cc(NS(=O)(=O)c2ccc(Nc3nc(-c4sc(N)nc4C)cs3)cc2)no1	9.2	70.2	0.6	-2.0	-4.7%
COc1ccc(CN(C2CCCC2)S(=O)(=O)c2ccc(-n3cnnn3)cc2)cc1OC	-7.4	-1.0	-36.1	7.3	-3.4%
Cc1cc(CN(C)C(=O)CC2C(=O)NCCN2Cc2c(F)cccc2Cl)on1 (centres undefined)	x	-2.8	x	-0.4	-3.6%
O=C(Cn1c(C2CC2)nc2ccccc2c1=O)Nc1ccc(Br)cc1	-5.8	-14.3	-16.8	-0.1	-9.9%
CCOC(=O)Cc1csc(NC(=O)/C=C/c2ccccc2Cl)n1	x	-5.4	x	0.1	6.3%
O=C(c1ccccc1Br)N1CCN(c2ccccn2)CC1	x	-3.7	x	-2.2	x
O=C(O)CC1=C(O)C(=O)N(c2ccccc2)C1c1ccc(Cl)cc1 (centres undefined)	1.9	0.5	-27.9	-1.9	-5.6%
COC(=O)c1ccccc1S(=O)(=O)Nc1ccc2cn[nH]c2c1	-3.9	2.4	-53.5	5.8	2.9%
FC(F)(F)c1nnc(-c2ccccc2)nc1N1CCOCC1	-11.3	4.2	-13.5	-0.8	5.5%
Cc1[nH]nc(SCC(=O)Nc2cccc(O)c2)c1[N+](=O)[O-]	4.7	-2.9	x	-4.9	0.1%
O=C(NCCC1=CCCCC1)c1cnc2n(c1=O)CCS2	-7.8	-4.0	-24.3	0.7	-3.5%
Cc1cc([N+](=O)[O-])ccc1NC(=O)Nc1ccccc1F	-6.6	-5.6	x	x	8.3%
O=C(O)c1ccc(CNCc2cccc(Cl)c2)cc1	5.5	-5.3	x	-3.3	0.7%
Cc1cc(C)n(CC(=O)NC2CCCCC2)n1	4.4	0.0	3.8	-3.6	-3.6%

Later entries
SMILES	Arbovirus anti	Mtb betalactam	YopH PTP inh	RecA intein inh	Mtb growth
CC(C)CCn1c(=O)c2ccccc2c2ccccc2c1=O	-7.1	0.3	-17.5	9.1	-0.1%
CC1CC1C(=O)OCc1cc(=O)n2cc(Br)ccc2n1 (centres undefined)	0.0	94.3	-38.2	-3.5	1.3%
O=S(=O)(Cc1ccccc1)c1nc2ccccc2n1Cc1ccccn1	11.3	-6.9	x	1.6	2.8%
COc1cccc(CNS(=O)(=O)c2csc(C(N)=O)c2)c1	x	-8.0	x	2.5	x
O=C(Nc1cc(C(F)(F)F)ccc1N1CCCCC1)c1ccc(Br)o1	-4.1	-10.6	-6.5	-1.3	-9.4%
O=C(Nc1cccc(NC(=O)c2ccc(Br)cc2)c1)c1ccccc1	x	3.0	x	-0.3	x
COC(=O)Cc1c[nH]c2ccc(OCC(O)CNC(C)C)cc12 (centres undefined)	1.6	-1.3	-15.9	0.3	-3.9%
O=C(NCC1CCCN(C(=O)CN2CCCCC2)C1)c1ccccc1Cl (centres undefined)	x	0.7	x	-0.7	-0.5%
Cc1ccc(C(=O)Nc2nnc(S(=O)(=O)N3CCC(C)CC3)s2)cc1	x	2.7	x	-6.4	x
CCCCN(C(=O)CCC(=O)Nc1cc(C)on1)C(C(=O)NC(C)(C)C)c1ccccc1Cl (centres undefined)	x	-13.1	x	0.6	x
O=C1CCCN1CCCNC(=S)Nc1ccc(Br)cc1Cl	3.2	-4.4	x	-1.6	-5.1%
COc1ccccc1OCCNC(=O)CC(NC(C)=O)c1ccccc1 (centres undefined)	x	-3.1	x	0.8	x
Cc1ccc(C)c(S(=O)(=O)N2CCN(CC(=O)N3CCc4ccccc4C3)CC2)c1	-3.4	-5.0	-5.7	0.7	-3.7%
CCOC(=O)c1cnc(SCC(=O)N2CCN(C(=O)c3ccco3)CC2)nc1N	-0.9	-21.9	-24.1	-3.7	-5.0%
COc1cccc(/C=C(/CC(=O)Nc2ccc(N3CCOCC3)cc2)c2nc3ccccc3s2)c1	-12.7	-1.8	-21.4	-0.9	3.3%
CCOc1ccc(N2CSC(=S)N(c3ccc(OCC)cc3)C2)cc1	x	95.3	x	1.3	69.0%
Cc1ccccc1-c1nnc(SCc2ccccc2)o1	0.6	-1.0	5.9	2.4	7.7%
CC(C)c1ccc(OCc2ccc(C(=O)N3CCN(c4ccccn4)CC3)cc2)cc1	-29.3	93.3	5.5	9.2	21.3%
CCOC(=O)c1ccc(NC(=O)NC2CC3CCC(C2)N3)cc1 (centres undefined)	-6.1	-4.4	x	-4.4	-5.5%
Cc1ccc(N2C(=O)C3Sc4[nH]c(=O)sc4C(c4ccccc4)C3C2=O)cc1 (centres undefined)	12.3	-10.3	-5.9	x	-2.9%
COC(=O)C[C@H]1c2ccccc2S(=O)(=O)N1c1cccc(OC)c1	x	-5.8	x	-0.8	-4.3%
COc1ccc(NC(=O)C#Cc2ccccc2)cc1	x	5.1	x	2.1	x
COc1ccc(C(=O)/C=C/Nc2ccccn2)c(OC)c1	x	-3.4	x	-21.8	-1.3%
O=C(N/N=C1\CCS(=O)(=O)c2ccc(F)cc21)c1ccc(O)cc1	x	-3.4	x	3.0	0.7%
CCOc1ccc(NC(=O)C2=C(C)C(=O)OC23CCC(C)CC3)cc1 (centres undefined)	-1.2	-3.6	-37.4	1.2	10.9%
(list continues)
SMILES	Arbovirus anti	Mtb betalactam	YopH PTP inh	RecA intein inh	Mtb growth
c1ccc2c(c1)ncn2Cc1nnc2sc(-c3ccc4c(c3)OCO4)nn12	7.8	1.7	-45.6	2.5	-5.9%
O=S(=O)(NCc1csc(-c2cccs2)n1)c1cccc(C(F)(F)F)c1	x	-9.6	x	3.2	3.2%
O=C(c1cccc(C(F)(F)F)c1)C1CCCN(C(=O)CN2CCCC2=O)C1 (centres undefined)	3.9	-3.7	x	-0.6	-7.4%
Cc1ccc(-c2nn(-c3ccccc3)cc2NC(=O)c2ccccc2)cc1	0.3	6.6	-13.4	-1.1	-0.6%
COc1ccc(OC(=O)c2cccc(S(=O)(=O)N3CCCC3)c2)cc1	-5.1	91.2	-55.1	2.9	2.9%
Cc1ccc(S(=O)(=O)N2CCN(C(=O)NCc3ccc(C(=O)O)cc3)CC2)cc1	x	3.5	x	-2.0	x
C(=C\c1ccco1)/C=N/n1cnnc1	4.5	-4.9	-28.8	7.7	0.1%
CC(C)C[C@@H](C(=O)NCc1ccco1)N1C(=O)N2CCc3c([nH]c4ccccc34)[C@@]2(C)C1=O	x	-3.7	x	15.5	x
CCOc1ccc(NC(=O)N(CCC(C)C)C2CCN(C(C)=O)CC2)cc1	-1.9	83.5	-19.3	-0.3	87.3%
COc1cc2oc(-c3ccc(O)cc3)cc(=O)c2c(O)c1OC	x	0.1	x	-3.0	8.1%
CC(C)(C)c1ccc(/C=C2\Oc3cc(OC(=O)N4CCOCC4)ccc3C2=O)cc1	4.1	1.8	-7.3	0.8	1.7%
Nc1cc(=O)[nH]c(SCC(=O)Nc2ccc3c(c2)CCC3)n1	9.4	10.5	x	2.9	4.8%
O=C(CSc1nnc(-c2ccc(Br)cc2)n1C1CCCCC1)N1CCCC1	-8.4	-6.8	-24.5	10.6	-7.0%
COC(=O)c1ccc(C(=O)OC)c(NC(=O)CCC(=O)O)c1	12.7	-1.5	-24.3	-2.7	-7.0%
Fc1cnc(Cl)nc1NC1CCCCC1	x	4.9	x	-0.4	x
CCOc1cc2c3c(c1)C1(Nc4ccccc4S1)C(=O)N3C(C)(C)CC2C (centres undefined)	-17.2	43.7	-6.2	14.2	3.4%
Fc1ccc(-c2cc(C(F)(F)F)nc(-n3cccn3)n2)cc1	x	-1.4	x	-0.2	2.8%
COc1ccc(C(=O)CSc2nc(SC)ns2)cc1OC	-2.0	7.5	-20.0	2.1	-0.7%
Oc1c(Br)cc(Br)cc1/C=N/NC(=S)N[C@H]1CC2C=CC1C2 (some centres undefined)	x	3.9	x	21.0	u
CCN1C(=O)C(=Cc2cccc(OC)c2Oc2ccc([N+](=O)[O-])cc2[N+](=O)[O-])SC1=S	x	8.8	x	14.2	x
CCOc1ccc(S(=O)(=O)NCCC(=O)NCC(c2ccc(OC)cc2)N2CCCCC2)cc1 (centres undefined)	x	-7.2	x	3.1	x
CCOC(=O)c1c(C)oc2c(CN3CCN(C)CC3)c(Br)c(OC)c(O)c12	1.9	-2.7	-31.7	-2.7	-4.5%
C/C(=N\NC(=O)c1cccc(Cl)c1)c1cccc(NC(=O)C(C)C)c1	6.1	x	14.4	-5.0	-5.2%
CC(=O)Oc1ccc(C(=O)NCc2ccco2)cc1	x	1.1	x	1.4	x
Cc1nnc(SCC(=O)N2CC(=O)Nc3ccccc32)n1C	2.8	-3.4	-4.8	4.2	-19.6%
O=C(OCc1cccc(F)c1)c1ccc2c(c1)-c1ccccc1C2=O	-6.0	42.3	-55.4	0.5	2.2%

The list is partial, so the mix of outcomes need not match the whole.
